Screening data from PubChem BioAssay.
H5N1 CPE: antiviral screen in MDCK cells, H5N1 avian flu. inhibition, % at 50 µM. AID 740. cytopathic effect, luminescence, 72 h; active compounds read high; no value below 0 was filed and about half of the inactive calls have no number; reference of the scale not given here. hit rate 0.07% among 96,000; in the data active = inhibition above about 25%
An asterisk follows results filed as active; i = inactive. Some of the compounds tested. The share of hits here may be higher or lower than overall.

SMILES	H5N1 CPE
CCc1nc2c3cnn(-c4cc(Cl)ccc4C)c3ncn2n1	0.3
CCOC(=O)c1c(C)n(C)c2ccc(OCC(O)Cn3c(C)nc4ccccc43)cc12 (stereo unspecified)	i
Cc1ccccc1C(=O)NNC(=O)c1ccc(F)cc1	i
Cc1ccc(OCCCn2ccnc2)cc1C	i
Cc1ccc(S(=O)(=O)/C(C#N)=C/c2c(N3CCC(C(N)=O)CC3)nc3c(C)cccn3c2=O)cc1	1.2
CCOC(=O)c1c(C)[nH]c(C(=O)OC)c1CCC(=O)OC	0.2
Cc1n[nH]c(C)c1S(=O)(=O)N1CCC(C(=O)O)CC1	i
Cc1ccccc1NC(=O)N1C2CCCC1CC(NC(=O)C(C)(C)C)C2 (stereo unspecified)	0.3
CCN1C(=C2C(=O)c3ccccc3C2=O)C=Cc2ccccc21	7.0
COc1cccc(-n2nc(C(=O)O)c3ccccc3c2=O)c1	0.7
COc1ccccc1CNC(=O)CS(=O)Cc1nc(-c2ccccc2C)oc1C (stereo unspecified)	1.2
Cn1c(=O)n(CCc2ccccc2)c(=O)c2c1nc1n2CCCN1c1ccccc1	1.5
Cc1ccc(C)n1-c1cccc(C(=O)O)c1	3.8
O=C(NC(Cc1ccccc1)C(=O)N1CCCC1C(=O)O)c1ccccc1 (stereo unspecified)	0.2
CC(C)C(C(=O)NCC1CCCO1)N(Cc1ccco1)C(=O)CNS(=O)(=O)c1ccccc1 (stereo unspecified)	0.4
Cc1ccnc(N/C=C(\C#N)c2nc(-c3cccc(Br)c3)cs2)c1	i
CCOc1ccc(NC(=O)Cn2nnc(C(=O)NCCc3ccc(OC)c(OC)c3)c2N)cc1	0.6
O=C(Nn1c(-c2ccccc2)nc2ccccc2c1=O)c1ccco1	i
CCOC(=O)c1ccc(CC(=O)c2oc3cc(O)ccc3c2C)o1	1.1
Oc1c(C(c2cccs2)N2CCN(c3cccc(Cl)c3)CC2)sc2ncnn12 (stereo unspecified)	2.4
CC(CC(=O)Nc1cc(C(F)(F)F)ccc1Cl)c1ccccc1 (stereo unspecified)	0.6
COC(=O)C1=C(C)N=C2SC(C)C(=O)N2C1c1cccc(F)c1 (stereo unspecified)	i
CCc1nnc(NC(=O)C2CCCN2S(=O)(=O)c2ccc(F)cc2)s1 (stereo unspecified)	0.4
O=C(CN(C1CCCCC1)S(=O)(=O)c1ccc(Cl)cc1)NCc1ccncc1	i
CCN(CC)c1ccc(/C=N/n2nnnc2N)c(O)c1	1.3
COc1ccc(NC(=O)CCn2cccc2)cc1	i
O=c1c2cc([N+](=O)[O-])ccc2nc(CN2CCOCC2)n1-c1ccccc1F	1.5
CO/N=C/NC(=O)Cc1cn(-c2ncc(C(F)(F)F)cc2Cl)c2ccccc12	i
Cc1cc(C(F)F)n2nc(C(=O)Nc3cccnc3Cl)nc2n1	1.6
CC(C)Cc1cc(C(=O)NCc2cccs2)no1	0.3
CCOc1cc(Br)c(C(=O)O)cc1OCC	0.3
CCOC(=O)c1ccc(N2C(=O)C3CC=CCC3C2=O)cc1 (stereo unspecified)	0.2
COC(=O)c1sccc1NC(=O)c1cc(-c2cc(C)ccc2C)nc2ccccc12	i
CC(=O)C1(c2ccccc2)CCNCC1	0.2
Cc1cc(C)c2c(-n3cccc3)c(NC(=O)OC(C)C)sc2n1	i
CC(C)(C)n1nc2c(c1NC(=O)c1ccc(Br)cc1)CS(=O)C2 (stereo unspecified)	i
Cn1c(-c2sc(=S)n(-c3ccccc3)c2N)nc2ccccc21	i
CN(C)CC#CCC(O)(c1ccccc1)C1CCCC1 (stereo unspecified)	0.4
Cn1c(CCN2CCCCCC2)nc2cc(NC(=O)Nc3ccccc3)ccc21	i
CC(C)COC(=O)c1ccc(NC(=O)C2C3CCC(C3)C2C(=O)O)cc1 (stereo unspecified)	i
Cc1cc(NC(=O)CCC(=O)N(c2ccccc2)C(C(=O)NC2CCCCC2)c2cccs2)no1 (stereo unspecified)	0.3
COc1ccc(C(=O)c2sc(Nc3ccccc3)c(C(=O)Nc3ccc(OC)c(OC)c3)c2N)cc1	4.5
COc1ccc(-n2ncc3c(NCCCn4ccnc4)ncnc32)cc1	0.1
CON/C=C(\C=Nc1ccc(Cl)cc1)c1ncc(C(F)(F)F)cc1Cl	0.1
O=C(NCCO)c1scc2c1OCCO2	0.8
Cc1nn(C)cc1/C=N/NC(=O)C(C)(C)Oc1ccc(Cl)cc1	i
CCOc1ccccc1C1C(C#N)=C(N)SC(N)=C1C#N	i
COc1ccc(/C=C/C(=O)N(C(C)C)C(C)C)cc1Br	1.5
O=C(O)c1cnc2ccccc2n1	i
Cc1cc(C(=O)Nc2ccccc2)c(C)o1	i
COc1ccc(C(=O)N2c3ccccc3CC2C)cc1OC (stereo unspecified)	0.8
Cc1c(C(=O)Nc2ccc(Cl)cc2)c2ccccn2c1C(=O)c1ccc(F)cc1	3.6
CC(C)(C)c1ccc(CN(Cc2ccco2)Cc2nnnn2C2CCCC2)cc1	i
CCn1c(CC(=O)Nc2ccc(C)cc2)nnc1SCC(=O)NCCc1ccccc1	i
CC(C)C(=O)N1CCN(CCN=Cc2c(O)n(C)c(=O)n(C)c2=O)CC1	0.8
NC(=O)C(c1ccc(Cl)cc1)c1ccc(Sc2ccc(Cl)cc2)nn1 (stereo unspecified)	0.5
Cc1ccc(S(=O)(=O)Oc2ccccc2/C=N/NC(N)=S)cc1	i
Cn1c(=O)n(C)c2cc([N+](=O)[O-])c(N3CCN(S(=O)(=O)c4ccc(C(C)(C)C)cc4)CC3)cc21	3.1
Cc1c(N2C(=O)CS/C2=N\N=C\c2ccc(Br)cc2)c(=O)n(-c2ccccc2)n1C	i
CCOc1ccc(NC(=O)CSc2nc(C)c3c(c2C#N)CCCC3)cc1	0.1

The list continues:
SMILES	H5N1 CPE
COc1cc(/C=N/NC(=O)Cn2nc([N+](=O)[O-])cc2C)cc(Br)c1OCc1ccccc1	0.1
CC(Oc1ccc(Cl)cc1Cl)c1nc(-c2ccc(NC(=O)c3ccco3)cc2)no1 (stereo unspecified)	i
Cc1ccc(C)c(C(=O)C(C)OC(=O)c2cccn2C)c1 (stereo unspecified)	i
COc1cc(OC)cc(-c2cc(N)n(S(=O)(=O)Cc3ccccc3)n2)c1	1.5
CCCn1c(C(O)c2ccc3c(c2)OCO3)nc2ccccc21 (stereo unspecified)	i
CCN(CC)S(=O)(=O)c1cc(C(=O)O)c(Cl)cc1Cl	0.8
Fc1ccc(-c2cc(C(F)(F)F)nc(-n3cncn3)n2)cc1	0.9
COc1ccc(F)c(C2C(C#N)=C(N)Oc3n[nH]c(C(C)(C)C)c32)c1 (stereo unspecified)	i
O=C(COC(=O)CCC(=O)Nc1nccs1)NCc1ccco1	i
O=C(OCC(=O)N1CCCCCC1)c1cccs1	0.2
CN1C(=O)C(=C2CCCCCC2)SC1=S	i
Cc1[nH]c(=O)[nH]c(=O)c1/C=N/NC(=O)[C@H](CC(C)C)NC(=O)OC(C)(C)C	i
O=C(CSC1=NC(=O)C(c2ccccc2)C(=O)N1)Nc1ccccc1Cl (stereo unspecified)	i
CCn1c(CS(=O)Cc2ccc(Cl)cc2Cl)nnc1SCc1c(Cl)cccc1Cl (stereo unspecified)	0.2
CCOC(=O)C1CCCN(C(=O)c2cn(C)c3ccc(S(=O)(=O)N(C)C)cc3c2=O)C1 (stereo unspecified)	0.1
CN(CC(=O)N1CCc2ccccc21)S(=O)(=O)c1cccc2cccnc12	i
c1ccc2c(NC3=NCCS3)cccc2c1	i
O=C(Nc1ccc(S(=O)(=O)N2CCc3ccccc32)cc1)c1ccco1	i
COc1ccc(N/C=C2/CCCCC2=O)cc1	0.0
O=C(COC(=O)CCc1c[nH]c(=O)[nH]1)Nc1ccccc1	i

Part of the list above in another layout:
canonical_smiles | H5N1 CPE
Cc1c(N2C(=O)CS/C2=N\N=C\c2ccc(Br)cc2)c(=O)n(-c2ccccc2)n1C | i
CCOc1ccc(NC(=O)CSc2nc(C)c3c(c2C#N)CCCC3)cc1 | 0.1
COc1cc(/C=N/NC(=O)Cn2nc([N+](=O)[O-])cc2C)cc(Br)c1OCc1ccccc1 | 0.1
CC(Oc1ccc(Cl)cc1Cl)c1nc(-c2ccc(NC(=O)c3ccco3)cc2)no1 (stereo unspecified) | i
Cc1ccc(C)c(C(=O)C(C)OC(=O)c2cccn2C)c1 (stereo unspecified) | i
COc1cc(OC)cc(-c2cc(N)n(S(=O)(=O)Cc3ccccc3)n2)c1 | 1.5
CCCn1c(C(O)c2ccc3c(c2)OCO3)nc2ccccc21 (stereo unspecified) | i
CCN(CC)S(=O)(=O)c1cc(C(=O)O)c(Cl)cc1Cl | 0.8
Fc1ccc(-c2cc(C(F)(F)F)nc(-n3cncn3)n2)cc1 | 0.9
COc1ccc(F)c(C2C(C#N)=C(N)Oc3n[nH]c(C(C)(C)C)c32)c1 (stereo unspecified) | i
O=C(COC(=O)CCC(=O)Nc1nccs1)NCc1ccco1 | i
O=C(OCC(=O)N1CCCCCC1)c1cccs1 | 0.2
CN1C(=O)C(=C2CCCCCC2)SC1=S | i
Cc1[nH]c(=O)[nH]c(=O)c1/C=N/NC(=O)[C@H](CC(C)C)NC(=O)OC(C)(C)C | i
O=C(CSC1=NC(=O)C(c2ccccc2)C(=O)N1)Nc1ccccc1Cl (stereo unspecified) | i
CCn1c(CS(=O)Cc2ccc(Cl)cc2Cl)nnc1SCc1c(Cl)cccc1Cl (stereo unspecified) | 0.2
CCOC(=O)C1CCCN(C(=O)c2cn(C)c3ccc(S(=O)(=O)N(C)C)cc3c2=O)C1 (stereo unspecified) | 0.1
CN(CC(=O)N1CCc2ccccc21)S(=O)(=O)c1cccc2cccnc12 | i
c1ccc2c(NC3=NCCS3)cccc2c1 | i
O=C(Nc1ccc(S(=O)(=O)N2CCc3ccccc32)cc1)c1ccco1 | i

Next section.
SMILES	H5N1 CPE
CCC(CC)C(=O)NCCc1cc2ccc(OC)cc2[nH]c1=O	1.1
O=C(O)CCCCCNS(=O)(=O)c1cccc2nsnc12	0.8
COCc1nc2ccccc2n1Cc1cccc(C)c1	i
Cc1ccc(C(c2nnnn2C2CCCCC2)N(C)C2CCCCC2)cc1 (stereo unspecified)	5.3
O=C(CSc1nnc(-c2cccnc2)n1-c1ccccc1)Nc1ccc2c(c1)OCO2	0.3
CC(C)(C)NC(=O)Cn1nnc(-c2ccc(Cl)cc2)n1	i
O=C(CS(=O)(=O)Cc1ccccc1)NCC1CCCO1 (stereo unspecified)	i
CSc1nc(N2CCOCC2)c2c(c1C#N)CCCCC2	i
COc1ccc(NC(=O)CCCNS(=O)(=O)c2cccs2)cc1	i
CC(c1ccccc1)n1cncc1C(=O)N1CCCC1=O (stereo unspecified)	i
COc1ccc(-c2ccc(SCC(=O)N3c4ccccc4CC3C)nn2)cc1OC (stereo unspecified)	i
FC(F)(F)c1cccc(N2CCN(Cc3ccoc3)CC2)c1	i
CCc1c(C#N)c(SCCC(=O)Nc2ccc(OC)cc2)nc2c1C(=O)CC(C)(C)C2	2.2
CCn1ncc(Br)c1C(=O)N(C)C12CC3CC(CC(C3)C1)C2	0.1
COC(=O)/C(=C1/Oc2cc(C)oc(=O)c2S1)C(F)(F)F	i
CCOC(=O)CSc1nncc2ccc(OC)c(OC)c12	0.3
Cc1cccc2cc(C(c3nnnn3CC3CCCO3)N3CCOCC3)c(=O)[nH]c12 (stereo unspecified)	0.1
Fc1ccc(CN2CCCCCCC2)cc1	0.1
CCCSc1nnc(Cc2cc(=O)[nH]c(=O)[nH]2)n1-c1cc(C)ccc1C	i
COc1ccccc1-n1cnc2cc(NS(=O)(=O)c3ccccc3)ccc21	1.1
Oc1oc(-c2ccco2)nc1C=Nc1cccc(Cl)c1	1.7
CCOC(=O)Cc1c(C)nc2c(C#N)c[nH]n2c1=O	i
Cc1cc(C)nc(-n2nc(C)c(Br)c2Nc2ccc(Br)cc2)n1	0.7
O=C1c2ccccc2C2=Nc3ccccc3SC(c3ccccc3F)C12 (stereo unspecified)	8.3
CCCCOC(=O)Nc1nccs1	0.4
CCCCn1c(SCC(=O)N2CCC(C)CC2)nc2cc(S(N)(=O)=O)ccc21	1.0
O=C1C2CC=C(Cl)CC2C(=O)N1CCc1c[nH]c2ccccc12 (stereo unspecified)	3.1
CN(Cc1ccccc1)S(=O)(=O)c1ccc(Cl)nc1	0.2
Cc1ccc(-c2csc3ncnc(SCC(=O)Nc4nnc(C)s4)c23)cc1	i
Cc1ccc(N2CCCCn3c2nc2c3c(=O)n(CC(=O)O)c(=O)n2C)cc1	0.1
O=C(OCCN1CCCC1)C1(c2ccccc2)CCCC1	2.4
CCOC(=O)c1c(C)c(C(=O)N2CCN(C(=O)c3ccco3)CC2)c(C)n1C	0.3
CCN(CC)N=Nc1[nH]nc2nc(C)cc(C)c12	i
Cc1nc(=O)c(-c2ccccc2)c(C)n1-c1ccc(O)cc1	0.8
O=C(Nc1ccc(Oc2cccc3ccccc23)cc1)c1ccco1	0.6
CCn1nccc1C(=O)Nc1nccs1	i
O=c1cc(CN2CCN(C/C=C/c3ccccc3)CC2)c2cc(O)ccc2o1	0.1
CCOC(=O)CSc1nc2ccccc2c(=O)n1CCCCCC(=O)NCc1ccco1	i
COC(=O)c1ccc(Cn2nc(C)c(Cl)c2C)o1	0.7
COc1ccc(Cn2c(SCC(=O)NCc3ccco3)nc3ccsc3c2=O)cc1	1.5
N=C1C(c2nc(-c3ccc(F)cc3)cs2)=C(O)CN1Cc1ccc(Cl)cc1	i
Cc1c(N=Cc2c(O)n(Cc3ccco3)c(=O)[nH]c2=O)c(=O)n(-c2ccccc2)n1C	1.0
COc1cc(C2SCC(=O)N2c2nnc(C34CC5CC(CC(C5)C3)C4)s2)cc(OC)c1OC (stereo unspecified)	0.8
CCCSc1nnc(-c2cnn(-c3ccccc3)c2-n2cccc2)n1C	0.3
COc1ccc(Nc2cccccc2=O)cc1	i
O=C(N/N=C/c1ccc(Cl)cc1Cl)C1CCN(c2ncc(C(F)(F)F)cc2Cl)CC1	i
CCC(CC)NC(=O)c1cc(OC)c(OC)c(OC)c1	0.4
COc1cccc2c(=O)n(CC(=O)N3CCCc4ccccc43)ccc12	1.5
COc1ccc(CCN2CNc3c(c(=O)n(C)c(=O)n3C)C2)cc1	i
CCOc1cc(/C=N/NC(=O)COc2ccccc2C)ccc1OC(=O)c1cccs1	i
O=C(Nc1cccc2ccccc12)N1CCN(Cc2ccc3c(c2)OCO3)CC1	1.5
CCOc1ccccc1NC(=O)CSc1nnc(-c2ccco2)o1	i
COc1cc(C(=O)OCC(=O)Nc2cc(C)on2)ccc1OCc1ccccc1Cl	0.9
